# Bioassay records as filed in PubChem BioAssay.
# KAT2A inh = blocks human GCN5L2 histone acetyltransferase. 390,000 tested, 0.21% active. Q92830. Potency, µM (doses to about 58.9 µM), inactives show at the top dose activity change, negative = inhibition, most hits filed as inhibitors. GCN5L2 HAT assay, ThioGlo1 CoA-SH fluorescence; active = well fitted inhibition curve with a large enough effect; inconclusive = small, poorly fitted or top-dose-only effect, or another doubt; inactive = no such curve, though single readings can be large or run the other way
# Target sequence (Q92830 whole entry, looked up): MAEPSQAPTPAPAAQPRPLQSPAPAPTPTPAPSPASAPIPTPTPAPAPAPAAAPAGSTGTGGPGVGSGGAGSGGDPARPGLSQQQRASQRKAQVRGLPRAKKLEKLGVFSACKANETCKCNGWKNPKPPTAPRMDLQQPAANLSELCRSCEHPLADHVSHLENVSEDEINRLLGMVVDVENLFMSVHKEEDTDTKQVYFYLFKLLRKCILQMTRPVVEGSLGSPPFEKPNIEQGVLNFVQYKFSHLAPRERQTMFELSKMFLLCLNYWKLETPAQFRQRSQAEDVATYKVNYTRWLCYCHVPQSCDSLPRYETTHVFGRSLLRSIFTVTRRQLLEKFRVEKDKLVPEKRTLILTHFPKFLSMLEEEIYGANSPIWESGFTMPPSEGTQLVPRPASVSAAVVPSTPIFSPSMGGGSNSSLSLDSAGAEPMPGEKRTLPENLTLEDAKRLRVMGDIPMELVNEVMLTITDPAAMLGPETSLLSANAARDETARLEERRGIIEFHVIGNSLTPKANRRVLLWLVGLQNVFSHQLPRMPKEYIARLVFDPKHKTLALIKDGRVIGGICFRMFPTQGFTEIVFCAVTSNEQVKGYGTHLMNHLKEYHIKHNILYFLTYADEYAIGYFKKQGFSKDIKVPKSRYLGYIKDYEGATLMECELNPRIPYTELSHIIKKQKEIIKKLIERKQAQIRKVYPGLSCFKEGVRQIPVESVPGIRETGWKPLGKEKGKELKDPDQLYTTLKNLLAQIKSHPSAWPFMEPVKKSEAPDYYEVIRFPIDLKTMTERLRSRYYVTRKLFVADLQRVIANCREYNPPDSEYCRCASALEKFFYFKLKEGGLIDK
#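 qHTS, 1536-well. 20nM enzyme, pH 7.5 HEPES/EDTA/Tween-20 buffer; 15 min compound preinc., RT. Start: 75uM H3(1-25), 70uM AcCoA, 50uM ThioGlo1. Read Ex340/Em540 at t=0 (autofluorescence flag) and t=20 min.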
# * = called active by the depositor; ? = inconclusive; & = joins results of further samples; [ ] = another dose, or the depositor's remark. % is set by controls: 0 for no effect and ±100 for the full control effect; potency is the fitted concentration of half-maximal effect. An excerpt; most or all hits stand in other tables.
KAT2A inh,SMILES
-6%,CS(=O)(=O)N1CCc2cc(S(=O)(=O)Nc3ccc4oc5c(c4c3)CCCC5)ccc21
-1%,O=C(CCc1ccc(S(=O)(=O)N2CCOCC2)cc1)N1CCN(Cc2ccc3c(c2)OCO3)CC1
1%,CCCCC(=O)Nc1cc(C)c(NC(=O)c2ccco2)cn1
2%,N#Cc1ccc(C(=O)Nc2ccc([N+](=O)[O-])cc2)c(F)c1
-1%,CC1(C(=O)NCCN2CCOCC2)C=CC2(CCCCC2)N1C(=O)c1ccccc1 (centres undefined)
-4%,O=C(Nc1ccc(Cl)cc1)c1nc[nH]c1C(=O)N1CCc2ccccc2C1
-4%,Cn1c(SCC(=O)N2CCOCC2)nnc1-c1cnccn1
0%[21.4 µM],O=C(NC[C@@H]1CCCCN1)c1cc(OCC(F)(F)F)ccc1OCC(F)(F)F
1%,Cc1nn(Cc2ccccc2Cl)c(C)c1N
-8%,Cc1cc(C)n(C(C)CC(=O)Nc2ccc(C)c(F)c2)n1 (centres undefined)
-4%,Cc1oc(-c2cccc(Cl)c2)nc1CN1CCC(C(=O)NCCc2ccc(Cl)cc2)CC1
0%,CCOc1ccc(NC(=O)C2CC(=O)NC(N3CCc4ccccc43)=N2)cc1 (centres undefined)
2%,CN(C)c1ccc(N2CN=C3SCC(=O)N3C2)cc1
-13%,Cc1ccc(N(CC(N)=O)C2SC(=O)N(C)C2=O)cc1 (centres undefined)
-24%,O=C(c1ccc([N+](=O)[O-])cc1)N1CCN(C(=O)C2CCCCC2)CC1
-5%,Cc1ccc(C)c2nc3sc(C(=O)O)cc3cc12
-7%,c1ccc(-c2noc(C34CC5CC(CC(C5)C3)C4)n2)cc1
-6%,CCN(CC)CCn1c(=N)n(CCOc2ccccc2)c2ccccc21
0%,CCCOc1ccc(N2C(=O)CC(N3CCN(c4ccccc4OC)CC3)C2=O)cc1 (centres undefined)
-3%,COc1cc(C2C(C#N)=C(N)Oc3cc(N(C)C)ccc32)cc2c1OCO2 (centres undefined)
-9%,O=C(NCc1ccccn1)C(=O)NCC1OCCCN1S(=O)(=O)c1cc(F)ccc1F (centres undefined)
-2%,Cc1ccc(C(=O)COC(=O)C(C)N2C(=O)C3C4CCC(C4)C3C2=O)cc1 (centres undefined)
-4%,Cc1cccc(NC2=C(Cl)C(=O)OC2OC(C)C)c1 (centres undefined)
0%,CCS(=O)(=O)Nc1ccccc1C(N)=O
-9%,COc1ccc(-c2cccc(NS(=O)(=O)c3cc(C)c(OC)c(C)c3C)c2)nn1

# Later entries.
KAT2A inh,SMILES
-3%,C=C(C)c1cccc(C(C)(C)NC(=O)Nc2ncccn2)c1
9%,CCOC(=O)c1cnc2c(-c3ccc(Cl)cc3)cnn2c1C
8%,Cc1cc(NCc2ccccn2)n2c(nc3ccccc32)c1C#N
-6%,COc1ccccc1/C=N/Nc1cc(C)nc(N2CCOCC2)n1
?,COC(=O)C1=C(C)N(C2CCCCC2)C(=O)C1
-4%,Cc1cccc(CNC(=O)c2ccc(Cn3c(=O)c4cccn4c4cccnc43)cc2)c1
-8%,CC1=NN(c2ccccc2)C(=O)/C1=C\c1cc(C)n(-c2cccnc2)c1C
-15%,Cc1[nH]c(C)c(S(=O)(=O)N2CCN(c3ccc(Cl)cc3)CC2)c1C(=O)N1CCCC1
4%,O=C(CSCc1ccc(Cl)cc1)Nc1ccc2c(c1)OCO2
-18%,Cc1ccc2c(c1)C(=O)CC1(CCCC1)O2
-6%,O=C(Nc1cccc(C(=O)NC2CCCCC2)c1)c1ccccc1
-8%,CCN(C[C@H]1N[C@@](CC)(C(=O)OC)[C@H]2C(=O)N(Cc3ccccc3)C(=O)[C@@H]12)S(=O)(=O)c1ccc(C)cc1
-8%,Cc1ccc(S(=O)(=O)NCCSc2nnnn2-c2cc(C)ccc2C)cc1
-7%,COc1ccc(-n2nc(C(=O)Nc3ccc(C)cn3)c3c4ccccc4n(C)c3c2=O)cc1
0%,Cn1c(=O)c2c(nc(CN3CCN(Cc4ccccc4)CC3)n2Cc2ccc(Cl)cc2)n(C)c1=O
0%,CCOc1ccc(CCNC(=O)C2=C(C)C(=O)OC23CCCCC3)cc1OCC
-14%,C=CCn1c(SCc2cc(=O)n3ccsc3n2)nc2ccccc2c1=O
-6%,CC(=O)NCCNC(=O)c1ccc2c(=O)n(CCc3ccccc3)c(=O)[nH]c2c1
-5%,COc1ccc(S(=O)(=O)N(CC(=O)O)Cc2ccccc2)cc1OC
-3%,CC(=O)[C@]1(O)CCC2C3C=C(Cl)C4=CC(=O)C5CC5[C@@]4(C)C3CC[C@]21C (some centres undefined)
3%,CC(Sc1ccc(Cl)cc1)C(=O)Nc1ccccc1-c1ccccc1 (centres undefined)
11%,Cc1cc(NC(=O)c2cccc(F)c2)no1
-7%,CCN(CC)c1ccc(-c2c(C#N)c(N)nc(OC)c2C#N)cc1
-6%,COc1ccccc1OCCNC(=O)c1cc(=O)[nH]c2ccccc12
-10%,COc1ccccc1OCCCCOc1ccccc1C(C)=O

# Other compounds follow:
KAT2A inh,SMILES
-5%,CC(NC(=O)c1ccc(Cn2c(SCc3ccccc3)nc3cccnc32)cc1)c1ccccc1 (centres undefined)
-22%,CS(=O)(=O)Cc1ccc(C(=O)N2CCCC2c2cccs2)cc1 (centres undefined)
-2%,O=C1C2CC=CCC2C(=O)N1c1ccc(NCCc2ccc(Cl)cc2)c([N+](=O)[O-])c1 (centres undefined)
-18%,O=C(COC(=O)c1c2c(nc3ccccc13)/C(=C/c1cccc([N+](=O)[O-])c1)CCC2)NC1CCS(=O)(=O)C1 (centres undefined)
-6%,Cc1nnc(NC(=O)c2ccccc2)s1
10%,CC(=O)Nc1ccc(NC(=O)C2CCN(S(=O)(=O)c3cccc4nonc34)CC2)cc1
-9%,CCS(=O)(=O)N1CCN(c2ccc([N+](=O)[O-])c(NC(C)c3ccccc3)c2)CC1 (centres undefined)
-3%,Cc1ccc(C)c(NS(=O)(=O)c2ccc(NC(=O)c3ccco3)cc2)c1
-6%,O=C(NCCOc1nc(N2CCCCC2)nc(N2CCOCC2)n1)Nc1ccccc1
3%&2%,CN(C)CC/C=C1/c2ccccc2COc2ccccc21
-2%,COc1ccc(CC(=O)NC2CC(C)(C)NC(C)(C)C2)cc1
-1%,COC(=O)c1ccccc1C(=O)N1CCCC(C(=O)c2ccc(OC)c(OC)c2)C1 (centres undefined)
-23%,COc1cccc(CNC(=O)c2ccc(COc3ccccc3)cc2)c1
-12%,Cc1nc(SCC(=O)N2CCOCC2)c2c(=O)n(C)c(=O)n(C)c2n1
1%,Clc1ccc(-c2nnc(-c3ccco3)o2)cc1
-13%,CCCCNC(=O)CC1SC(=NCC)N(CC)C1=O (centres undefined)
-1%,O=C(C1CCC(=O)N(C2CC2)C1)N(CCO)Cc1ccccc1 (centres undefined)
0%,Cn1c(=O)c2c(-c3ccccc3)n(-c3ccccc3O)cc2n(C)c1=O
1%,COc1ccc(CCNC(=O)C2CCCN(S(=O)(=O)c3cnc[nH]3)C2)cc1OC (centres undefined)
-5%,CC(C(=O)Nc1ccc(S(=O)(=O)N2CCCC2)cc1)N1CCc2ccccc2C1 (centres undefined)
?,CCOC(=O)c1cc(C#N)c(N2CCCC2)nc1-c1ccccc1
-20%,CCOC(=O)c1cc2c(=O)n3ccccc3nc2n(CC(C)C)c1=NC(=O)c1ccco1
-5%,CCCCN1CC(COc2ccccc2)OC1=O (centres undefined)
0%,Cn1c2ccccc2c2c(C(=O)O)cn(C3CCCC3)c(=O)c21
-9%,COc1ccccc1C(=O)CSc1nnc(-c2ccco2)o1

# More entries
KAT2A inh,SMILES
-26%,O=[N+]([O-])c1cc2c(cc1/C=N/Nc1nc(Nc3ccccc3)nc(N3CCCCC3)n1)OCO2
1%,Cn1cnnc1SCC(=O)NC1CC1
-23%,COCCn1c(C)cc(/C=N/NC(=O)c2cc3ccccc3cc2O)c1C
-1%,CCCc1nnc(NC(=O)c2cccc(OC)c2)s1
0%,C[C@@H](NC(=O)Cn1cnc2c(NCc3ccccc3)ncnc21)c1cccc2ccccc12
-6%,CN1CCc2c(sc(NC(=O)CS(=O)(=O)c3ccc(F)cc3)c2C(N)=O)C1
-5%,O=C(COc1ccc(Cl)cc1Cl)N1CCCCCC1
-10%,Fc1ccc(NCc2n[nH]c(=S)n2Cc2ccccc2)cc1
-11%,CCNc1nc(CSc2ccccc2)nc2sc(C)c(C)c12
18%,O=C(Nc1ccncc1)c1cc(F)cc(F)c1
0%,Cc1ccc(Oc2c(CO)c(-c3ccccc3)nn2C)cc1
-42%,COc1cccc(/C=C2\SC(=S)N(CCCC(=O)Nc3ccc(C(=O)O)cc3)C2=O)c1
-10%,CCCN1CCN(c2ccc(S(N)(=O)=O)cc2[N+](=O)[O-])CC1
-6%,COc1cccc(C(=O)Nc2ccc(NC(=O)C3CCCCC3)nc2)c1
-6%,CCOC(=O)c1cc(-c2ccccc2)n(CC(=O)Nc2cc(Cl)c(OC)cc2OC)c1C
2%,COc1ccc(CNC(=O)COC(=O)CC2CCCC2)cc1
-2%,O=C(CN1C(=O)NC2(CCc3ccccc32)C1=O)Nc1cccc(Cl)c1 (centres undefined)
-6%,O=Cc1ccc(Oc2ccc(F)cc2)nc1
-9%,COc1ccnc2c1c(=O)n(Cc1ccc(Cl)cc1)c(=O)n2C
-6%,CCn1cc(S(=O)(=O)CC(=O)NC2CCCCC2)c2ccccc21
-7%,CCOc1ccc(NC(=O)c2ccc3nc(Cc4ccccc4)oc3c2)cc1
-3%,O=C(O)c1ccc(Cl)c(S(=O)(=O)Nc2ccc(S(=O)(=O)Nc3cccc(Cl)c3)cc2)c1
-23%,O=C(Nc1nc2ccccc2[nH]1)c1ccc(OC(F)F)cc1
1%,O=C(Cn1cnc2ccccc2c1=O)Nc1nnc(C2CC2)s1
-5%,CCc1ccc(Sc2cc(C(=O)O)c3ccccc3n2)cc1

# The list goes on; it opens with the 4 that closed the last part.
KAT2A inh,SMILES
-3%,O=C(O)c1ccc(Cl)c(S(=O)(=O)Nc2ccc(S(=O)(=O)Nc3cccc(Cl)c3)cc2)c1
-23%,O=C(Nc1nc2ccccc2[nH]1)c1ccc(OC(F)F)cc1
1%,O=C(Cn1cnc2ccccc2c1=O)Nc1nnc(C2CC2)s1
-5%,CCc1ccc(Sc2cc(C(=O)O)c3ccccc3n2)cc1
22%,O=c1[nH]c2cc3c(cc2cc1CN(Cc1ccc2c(c1)OCO2)Cc1nnnn1CC1CCCO1)OCO3 (centres undefined)
-4%,COc1cc(C(O)P(=O)(OC2CCCCC2)c2ccc(N(C)C)cc2)cc(OC)c1OC (centres undefined)
-5%,O=C(c1ccco1)N1CCN(S(=O)(=O)/C=C/c2ccccc2)CC1
-16%,CSc1ncccc1C(=O)OCC(=O)Nc1cccc(S(=O)(=O)N2CCOCC2)c1
-1%,C/C(=N\NC(=O)Cn1c(-c2ccccn2)nc2ccccc21)c1ccccc1
-6%,Cc1noc(C)c1CSCC(=O)N(C)CC(=O)Nc1ccccc1Br
-3%,O=C(Nc1cc(F)ccc1F)C1CCCN1S(=O)(=O)c1cccc2nsnc12 (centres undefined)
-19%,Cc1ccc(S(=O)(=O)N2CCCc3cc(NS(=O)(=O)c4ccccc4)ccc32)cc1
-1%,CN(C)/C=C(/C(=O)c1ccc(F)cc1)S(=O)(=O)c1ccc(F)cc1
-3%,COC(=O)c1c(C)[nH]c(C(=O)C(C)Sc2nnc(-c3cc(OC)c(OC)c(OC)c3)o2)c1C (centres undefined)
-6%,CC(=O)Cc1nsc(NC(=O)c2ccc(-c3cc(Cl)ccc3Cl)o2)n1
-7%,O=C(O)CCC(=O)N1N=C(c2ccc(Br)cc2)CC1c1cccs1 (centres undefined)
1%,CCc1nc(NC2CCCCC2)c(C#N)c2c1COC(C)(C)C2
0%,COc1ccc(CCNc2oc(Cc3ccccc3)nc2C#N)cc1OC
8%,Cc1cc(C)cc(-n2nnnc2-c2cn(C)nc2C(F)(F)F)c1
-6%,CCOC(=O)c1nc(-c2ccc(OC)c(OC)c2)cnc1C#N
-12%,CCn1ccnc1CN1CCN(CC(C)C)C(CCO)C1 (centres undefined)
0%,Nc1cc(=O)[nH]c(SCC(=O)N2CCCCC2)n1
-5%,COC(=O)c1cnc(N2CCN(c3ccccc3OC)CC2)c2ccccc12
-16%,CC(=O)Nc1cccc(C(=O)OCC(=O)NCc2ccc(F)cc2)c1
1%,Cc1c(NC(=S)NC(=O)C(C)(C)C)c(=O)n(-c2ccccc2)n1C
-2%,O=C(NCc1ccccn1)Nc1ccc(Cl)c(Cl)c1
-6%,Cc1nnc(NC(=O)Cn2nc(C)c3ccccc3c2=O)s1
2%,COc1ccccc1NC(=O)CSc1ccc2nnc(-c3ccncc3)n2n1
-2%,CCCCn1c(SCC(=O)Nc2nnc(C)s2)nc2c1c(=O)n(C)c(=O)n2C

# Grouped by structure: those above containing fluorine (14)
KAT2A inh,SMILES
2%,N#Cc1ccc(C(=O)Nc2ccc([N+](=O)[O-])cc2)c(F)c1
0%[21.4 µM],O=C(NC[C@@H]1CCCCN1)c1cc(OCC(F)(F)F)ccc1OCC(F)(F)F
-8%,Cc1cc(C)n(C(C)CC(=O)Nc2ccc(C)c(F)c2)n1 (centres undefined)
-9%,O=C(NCc1ccccn1)C(=O)NCC1OCCCN1S(=O)(=O)c1cc(F)ccc1F (centres undefined)
11%,Cc1cc(NC(=O)c2cccc(F)c2)no1
-6%,CN1CCc2c(sc(NC(=O)CS(=O)(=O)c3ccc(F)cc3)c2C(N)=O)C1
-10%,Fc1ccc(NCc2n[nH]c(=S)n2Cc2ccccc2)cc1
18%,O=C(Nc1ccncc1)c1cc(F)cc(F)c1
-6%,O=Cc1ccc(Oc2ccc(F)cc2)nc1
-23%,O=C(Nc1nc2ccccc2[nH]1)c1ccc(OC(F)F)cc1
-3%,O=C(Nc1cc(F)ccc1F)C1CCCN1S(=O)(=O)c1cccc2nsnc12 (centres undefined)
-1%,CN(C)/C=C(/C(=O)c1ccc(F)cc1)S(=O)(=O)c1ccc(F)cc1
8%,Cc1cc(C)cc(-n2nnnc2-c2cn(C)nc2C(F)(F)F)c1
-16%,CC(=O)Nc1cccc(C(=O)OCC(=O)NCc2ccc(F)cc2)c1
